High-throughput results as filed in PubChem BioAssay.
TRPML1 blocker = human mucolipin-1 channel inhibition; 390,000 compounds, 0.02% hits; activity change, negative = inhibition, % (test concentration not listed); AID 624415; TRPML1-inducible cells, Ca2+ dye fluorescence, FDSS; active compounds read low; inhibition of EC80 agonist-evoked calcium signal; in the data active means activity change below about -50%; inconclusive means about -30% to -50%; inactive means above about -30%;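 note: stimulus is agonist 54-4 at its EC80 concentration; % is set by controls: 0 for no effect and ±100 for the full control effect; compound concentration not given in the record; the text of the record puts the active cut at -80%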
Target sequence (Q9GZU1 whole entry, looked up): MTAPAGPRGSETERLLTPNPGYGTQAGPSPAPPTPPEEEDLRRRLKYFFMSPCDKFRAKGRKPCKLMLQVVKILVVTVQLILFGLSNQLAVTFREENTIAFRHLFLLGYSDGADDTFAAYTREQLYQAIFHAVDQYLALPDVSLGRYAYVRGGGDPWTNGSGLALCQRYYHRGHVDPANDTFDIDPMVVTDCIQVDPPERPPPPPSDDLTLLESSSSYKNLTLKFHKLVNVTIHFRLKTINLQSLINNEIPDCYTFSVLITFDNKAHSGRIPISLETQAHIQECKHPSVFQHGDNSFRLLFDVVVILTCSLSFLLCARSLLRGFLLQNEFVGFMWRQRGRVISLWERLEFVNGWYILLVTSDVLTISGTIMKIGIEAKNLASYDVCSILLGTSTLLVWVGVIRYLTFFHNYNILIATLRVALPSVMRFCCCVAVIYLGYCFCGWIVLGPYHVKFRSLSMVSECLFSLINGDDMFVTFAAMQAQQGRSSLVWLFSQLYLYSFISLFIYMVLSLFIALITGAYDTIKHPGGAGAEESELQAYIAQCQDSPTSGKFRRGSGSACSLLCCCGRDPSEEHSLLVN
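Tet-induced TRPML1-DL cells loaded with Ca8 no-wash calcium dye were read kinetically on FDSS. Compound addition was followed by EC80 agonist 54-4 (4 uM final); inhibition was read over 110 s.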
D2 agonist = activates the human D2 dopamine receptor | P14416 | DiscoveRx PathHunter D2 beta-arrestin, luminescence, 90 min; 100% = 57 uM dopamine signal | activation, % (no concentration beside the values) | 360,000 compounds, 0.084% hits; in the data active = activation above about 40%; inconclusive = about 15% to 40%; inactive = below about 15%; note: compound concentration not given in the record; the text of the record calls up to 30% inactive
Target sequence (P14416 whole entry, looked up): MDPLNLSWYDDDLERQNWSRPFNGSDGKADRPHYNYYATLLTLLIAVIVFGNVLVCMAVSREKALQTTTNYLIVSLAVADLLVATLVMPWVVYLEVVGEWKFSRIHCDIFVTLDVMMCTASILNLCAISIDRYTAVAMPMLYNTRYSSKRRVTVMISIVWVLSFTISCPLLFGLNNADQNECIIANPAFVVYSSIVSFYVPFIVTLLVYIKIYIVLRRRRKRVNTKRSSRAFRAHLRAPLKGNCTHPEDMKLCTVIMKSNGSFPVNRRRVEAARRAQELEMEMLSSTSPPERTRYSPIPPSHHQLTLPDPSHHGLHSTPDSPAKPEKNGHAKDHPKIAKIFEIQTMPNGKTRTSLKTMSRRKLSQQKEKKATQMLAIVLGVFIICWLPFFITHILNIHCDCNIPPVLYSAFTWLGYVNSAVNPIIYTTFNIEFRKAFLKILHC
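DiscoveRx PathHunter D2 beta-arrestin cells (2,100/well) attached overnight, then compound-stimulated 90 min at 37 C in HBSS/10 mM HEPES/0.1% Tween-20 buffer; beta-galactosidase complementation read by luminescence after 1 h at ambient temperature. Dopamine 57 uM final (EC100) as control.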
TRPML1 agonist = agonists of human TRPML1 channel; Q9GZU1; TRPML1-expressing cells, Ca2+ dye fluorescence, FDSS; host cell line not named in the record; reference of the full effect not given here; activation, % (test concentration not listed); 410,000 compounds, 0.12% hits; AID 624414; in the data active = activation above about 50%; inconclusive = about 30% to 50%; inactive = below about 30%; note: 0% is about no effect; the text of the record puts the active cut at 80%
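Calcium fluorescence on an FDSS kinetic reader gave the read-out. Tet-induced TRPML1-DL cells were plated overnight, dye-loaded (Ca8 with quencher, 45-90 min, room temperature, dark), then read 110 s after compound addition, and again 110 s after 4uM final 54-4 (EC80).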
D2 potentiator = positive allosteric modulators of human D2 dopamine receptor; P14416; DiscoveRx D2 beta-arrestin cells, luminescence, 90 min; 100% = 57 uM dopamine signal; potentiation, % (no concentration beside the values); 360,000 compounds, 0.23% hits; AID 624464; active = potentiation of 50% or more; inconclusive = 30% to 50%; inactive = 30% or less;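 note: compound concentration not given in the record; tested on top of an EC20 dose of dopamine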
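D2 cells co-treated with compound plus 50 nM dopamine (EC20) for 90 min at 37 deg C to detect potentiation. Beta-arrestin recruitment was read as enzyme-fragment luminescence after 1 h at ambient temperature. Full response was set by 57 uM dopamine.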
PINK1 modulator = PINK1 expression modulation. AID 624263. Potency, µM (highest dose often 76.6 µM), inactives show at the top dose activation (PINK1 increase), usual class: activators. PINK1 immunofluorescence, high-content cytometry, 24 h. 410,000 compounds, 0.2% hits; active = well fitted activation curve with a large enough effect; inconclusive = small, poorly fitted or top-dose-only effect; inactive = flat fitted curve, though single readings scatter; cell line not stated here;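 note: potency is the fitted concentration of half-maximal effect; % of control where 0% means no effect; nearly all actives have a fitted effect of over 65% in size; a mitochondrial uncoupler was the plate control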
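Stable cell line treated 24 h with compounds at 5 concentrations (CCCP controls), then fixed and immunostained for PINK1 plus nuclear and cell stains; PINK1 immunofluorescence quantified by laser-scanning microplate cytometry.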
Six1-Eya2 inh = Six1/Eya2 interaction inhibition. 360,000 compounds, 0.56% hits. activity change, % (test concentration not listed). Q15475+O00167. AlphaScreen GST-Six1/His-Eya2 binding, biochemical; active compounds read low; control for the full effect not named in the record; in the data active = activity change below about -65%; inconclusive = about -30% to -65%; inactive = above about -30%; note: % is set by controls: 0 for no effect and ±100 for the full control effect
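Homogeneous AlphaScreen proximity assay pairing GST-Six1 with His-tagged Eya2 (added as 5X mix: 250 nM and 500 nM) in 50 mM Tris pH 8.0, 300 mM NaCl, 1 mM TCEP. Glutathione donor and nickel acceptor beads; 1 h, 37 °C, dark.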
An asterisk follows results filed as active; ? = inconclusive; · = not tested or not shown; [ ] = dose if it differs, or a comment. Not a hit list, and some 1% of all compounds hit somewhere here.

SMILES	TRPML1 blocker	D2 agonist	TRPML1 agonist	D2 potentiator	PINK1 modulator	Six1-Eya2 inh
Cc1sc(N)nc1-c1cccs1	40	-0.9	1.3	-8	1.2%	-3
C[C@H](CO)N1C[C@H](C)[C@H](CN(C)C(=O)Nc2ccc3c(c2)OCCO3)OCc2cnnn2CCCC1=O	4	-4.6	0.0	-5	-0.1%	-1
Cc1ccc2c(c1)NC(=O)C(CC(=O)NCc1cccnc1)O2 (stereo unspecified)	-3	-5.2	-0.1	-3	3.1%	0
Cc1ccccc1OCc1nnc2c3cnn(C)c3ncn12	-8	-2.3	-0.2	-15	3.7%	4
O=C(OCC(=O)N1CCCC1)c1cccs1	-3	-0.9	-0.5	2	-0.9%	3
O=C(CCCCn1c(=O)[nH]c2ccccc2c1=O)NCc1ccc2c(c1)OCO2	-5	-1.2	-0.2	1	-0.3%	-7
CCc1sc(N2C(=O)C3C4CCC(C4=C(C)C)C3C2=O)nc1-c1ccccc1 (stereo unspecified)	-8	-3.0	1.6	-19	-1.4%[38.3 µM]	-13
O=C(NNC(=O)c1cccnc1SCc1cccc([N+](=O)[O-])c1)c1cccnc1	-9	-3.6	-0.7	-7	-0.5%	-1
CCCc1nc2oc3c(NCC4CCCO4)ncnc3c2c2c1COC(C)(C)C2 (stereo unspecified)	-1	-0.4	-0.4	-1	-1.1%[38.3 µM]	2
O=C(N/N=C/c1ccc(Br)s1)c1ccco1	5	-0.9	-0.4	-10	0.9%	14
Cc1cccc(OCC(=O)NCC(=O)N/N=C/c2ccc([N+](=O)[O-])cc2)c1	-9	1.7	0.1	-3	5.3%	11
Cc1ccc(CNC(=O)C2CCCN(c3nc4c(C)cc(C)cc4s3)C2)cc1 (stereo unspecified)	-12	·	-0.5	·	6.8%	·
CCN(CC)CCCOC(=O)C(c1ccccc1)c1ccccc1	·	-5.4	·	-82	-0.3%	1
CCOC(=O)C(=O)NC1CC=CCC1c1ccc2c(c1)OCO2 (stereo unspecified)	-2	2.4	0.2	-5	-2.7%	-1
CCOc1ccccc1-n1nnnc1SCC(=O)NCc1ccco1	15	-4.4	1.4	-4	2.1%	28
CCCCOc1ccc(CNC(=S)N/N=C/c2ccc(OC)c(OC)c2)cc1	21	-1.1	2.1	3	3.0%	-14
C/C(CC(=O)Nc1ccc(Cl)cc1C(F)(F)F)=N\NC(N)=S	2	2.0	0.3	-1	0.9%	0
C[C@@]12C(=O)N(c3ccc(Cl)cc3)C(=O)N1[C@@H]1c3ccccc3OC[C@@H]1[C@H]2c1ccccc1	62	-3.3	1.1	1	1.2%	-3
O=C(COC(=O)c1cc[n+]([O-])cc1)Nc1ccc(Cl)cc1[N+](=O)[O-]	-4	12	-0.8	4	-0.7%	-6
O=C1C2C3CCC(CC3)C2C(=O)N1c1ccccc1 (stereo unspecified)	12	1.5	-0.1	-5	1.0%	7
CCOC(=O)CC1c2cc(OCC)c(OCC)cc2CCN1C(=O)Nc1cccc(Cl)c1 (stereo unspecified)	24	·	0.8	·	-0.8%	·
O=S(=O)(Nc1ccc(-c2cn3ccccc3n2)cc1)c1ccccc1	·	5.3	·	-1	1.7%	-6
C/C(=N\NC(=O)c1ccc(Br)cc1)c1ccccc1	-6	-5.8	-0.5	-47	-0.3%	22
CC(=O)NCCC(=O)N1CCCC(C(=O)c2ccc3c4c(cccc24)CC3)C1 (stereo unspecified)	-8	-6.3	-0.4	-3	-0.9%	2
O=C(C1CCC(C(=O)N2CCCCC2)CC1)N1CCCCC1 (stereo unspecified)	-13	1.7	0.8	-17	-1.9%	16
O=C(N[C@@H](Cc1ccc(O)cc1)C(=O)O)c1cccnc1	6	-0.4	-0.6	-4	-1.5%	2
Cc1ccc(NC(=O)CN2C(=O)COc3ccc(S(=O)(=O)N4CCCCC4)cc32)cc1Cl	-16	·	1.6	·	2.3%	·
CS(=O)(=O)c1[nH]nc(-c2cccc(Cl)c2)c1C#N	4	-0.5	0.1	-2	-0.8%	-2
CC1CCN(c2ccccc2NC(=S)NC(=O)c2cccs2)CC1	6	-1.1	0.4	-10	3.1%	-29
CCCCC(=O)NC(NC(=S)N1CCCCCC1)C(Cl)(Cl)Cl (stereo unspecified)	40	-2.1	-0.1	-14	2.8%	10
Cc1ccccc1CN1CCN(C(C)C(=O)NCc2ccccc2)CC1 (stereo unspecified)	21	-1.5	1.6	-5	-1.6%	4
Cc1nn(C)cc1-c1n[nH]c(=S)n1-c1ccc(Cl)cc1	5	6.4	-0.6	-5	-0.2%	6
COC(=O)c1cc(C(=O)OCC(=O)N(C)C2CCS(=O)(=O)C2)cc([N+](=O)[O-])c1 (stereo unspecified)	-6	-1.8	0.1	-2	3.7%	-3
CCOC(=O)N(C)C[C@@H]1OCc2cn(nn2)CCCC(=O)N([C@@H](C)CO)C[C@H]1C	-3	1.4	-0.6	6	1.3%	5
C/C(=N\Nc1ccc2nncn2n1)c1ccc(Br)s1	-10	-2.0	2.0	-3	-0.5%	-8
C=CCNc1nc2c(c(=O)[nH]c(=O)n2C)n1CCCc1ccccc1	?	1.2	0.7	0	-1.1%	23

Some of these compounds in order of formula weight, smallest number first:
SMILES	TRPML1 blocker	D2 agonist	TRPML1 agonist	D2 potentiator	PINK1 modulator	Six1-Eya2 inh
O=C(C1CCC(C(=O)N2CCCCC2)CC1)N1CCCCC1 (stereo unspecified)	-13	1.7	0.8	-17	-1.9%	16
C=CCNc1nc2c(c(=O)[nH]c(=O)n2C)n1CCCc1ccccc1	?	1.2	0.7	0	-1.1%	23
CCCCC(=O)NC(NC(=S)N1CCCCCC1)C(Cl)(Cl)Cl (stereo unspecified)	40	-2.1	-0.1	-14	2.8%	10
COC(=O)c1cc(C(=O)OCC(=O)N(C)C2CCS(=O)(=O)C2)cc([N+](=O)[O-])c1 (stereo unspecified)	-6	-1.8	0.1	-2	3.7%	-3
Cc1ccc(NC(=O)CN2C(=O)COc3ccc(S(=O)(=O)N4CCCCC4)cc32)cc1Cl	-16	·	1.6	·	2.3%	·

Further results follow:
SMILES	TRPML1 blocker	D2 agonist	TRPML1 agonist	D2 potentiator	PINK1 modulator	Six1-Eya2 inh
COC(=O)CSc1[nH]c2cc(C)ccc2c1[N+](=O)[O-]	0	-2.8	0.2	-5	1.1%	3
CCCCOC(=O)Cn1c(=N)n(CCN2CCOCC2)c2ccccc21	-10	-1.8	-0.5	-22	1.4%	2
Cc1oc(-c2ccccc2F)nc1CN1CCC(C(=O)NCCc2ccc(Cl)cc2)CC1	2	·	-0.3	·	1.2%	·
CCOc1ccc(S(=O)(=O)N2CCN(C(=O)Cc3n[nH]c(=O)c4ccccc34)CC2)cc1	-20	-6.3	1.8	-37	0.3%	21
CC1CCCC(C)N1C(=O)COC(=O)CNS(=O)(=O)c1ccc2ccccc2c1 (stereo unspecified)	-2	-1.9	-1.0	-9	2.3%	-2
CCNC(=O)C1(C)CCCN(Cc2cccc3c(OC)cc(C(=O)OCC)cc23)C1 (stereo unspecified)	·	-1.8	-0.3	-3	1.0%	2
CCc1ccc(NC(=O)CSc2nc3ccccc3c(=O)n2CCCC(=O)NCCCN2CCOCC2)cc1	-7	-2.2	1.3	-2	-0.9%	4
COc1ccc(OC)c(/C=N/Nc2nc(C)cc(=O)[nH]2)c1	-1	2.2	0.0	-6	6.0%	-4
COc1ccccc1N1CCN(/N=C/c2ccc(Cl)c([N+](=O)[O-])c2)CC1	86	6.7	1.6	-7	0.2%	?
CCOC(=O)C1CCCN(Cc2nc(CC3CC3)no2)C1 (stereo unspecified)	-3	2.4	0.6	-1	-0.1%	4
Cc1[nH]c(=O)c(C#N)cc1-c1ccccc1	33	-2.0	3.5	-5	-2.9%	1
CCCCCCCN1N=C(C)C(C(=O)c2ccccc2)C1=O (stereo unspecified)	-1	-4.1	0.9	-7	0.2%	-12
O=c1[nH]n(-c2ccccc2)c(=O)cc1Cl	42	-1.7	-0.5	0	-1.7%	-1
COc1ccccc1NC(=O)c1c([N+](=O)[O-])c(C(C)(C)C)nn1C	19	-3.6	1.5	-4	-1.7%	-4
CN(C)CCCNC(=O)c1ccc(/C=N/O)nc1	-8	3.7	0.1	-3	-0.1%	?
CC(C)C[C@H](NC(=O)c1nc[nH]c1C(=O)NCCCCCNC(=O)OC(C)(C)C)C(=O)OCc1ccccc1	7	3.6	-0.4	-11	19%	-5
CCOC(=O)c1cc2c(c(CCO)n1)[C@@H](CCO)N(S(=O)(=O)C(C)(C)C)C2	-9	-3.6	0.1	·	1.6%	9
CCOC(=O)c1cnc2c(C)cc(C)cc2c1NCCc1ccc(OC)c(OC)c1	-1	·	0.2	·	-0.2%	·
Cc1ccc(C)c(C(=O)COC(=O)c2nn(C)c(=O)c3ccccc23)c1	3	-0.3	2.9	3	1.6%	1
CSCC(=O)N1CCC(n2nccc2NC(=O)c2ccc3c(c2)OCO3)CC1	12	3.3	3.1	-7	-1.4%	2
COc1ccc(C(=O)N2CCn3c(C)ccc3C2C)cc1 (stereo unspecified)	10	-0.8	-0.5	2	-1.2%	-5
CCC(CC)CN1C(Nc2ccccc2)=NC[C@@H]1CC(C)C	10	-3.7	-0.1	-7	-1.3%	9
O=C(NCCc1ccccn1)c1ccc(NS(=O)(=O)c2ccc(F)cc2)cc1	5	-0.4	-0.1	-3	-1.1%	7
COc1ccc(CCNC(=O)c2cc(-c3ccc(Cl)c(Cl)c3)oc2C)cc1	-9	0.9	1.1	21	-0.3%	14
O=C(C1CCCCC1)N1CCC(n2nnc3ccccc32)CC1	19	-2.0	-0.1	-12	0.1%	-1
COc1ccc(CNC(=O)c2cc(-c3cc(C)ccc3O)n[nH]2)cc1	3	8.8	0.3	5	1.9%	-12
CNC(=O)CC(C(=O)O)c1ccc(OCC(C)C)cc1 (stereo unspecified)	-7	-0.3	3.3	-5	0.2%	1
C=CCN1C(=O)C(C)NC1=S (stereo unspecified)	-4	-9.1	0.4	-12	-0.8%	4
COc1cccc(C(=O)Oc2ccc(/C=N/NC(=O)c3ccncc3)cc2OC)c1	4	1.8	1.8	3	5.1%	6
COc1ccccc1N1CCN(S(=O)(=O)c2cn(C)cn2)CC1	8	-0.3	-0.4	-6	0.4%	4
CCc1ccc(NS(=O)(=O)c2ccc3[nH]cc(C(=O)NCC4CCCO4)c(=O)c3c2)cc1 (stereo unspecified)	-8	2.9	-0.3	26	1.8%	-3
COc1ccc(-n2cc(C#N)c(=O)[nH]c2=O)cc1	4	2.9	-0.4	4	0.5%	12
CCn1nc(-c2ccccc2)c(-c2ccccc2)c(C(=O)Nc2nc(C)c(C(C)=O)s2)c1=O	4	·	3.0	·	-1.0%	·
O=c1oc2ccc3ccccc3c2cc1-c1nnc(Nc2cccc(C(F)(F)F)c2)s1	-2	·	0.7	·	1.1%	·
Cc1ccc(S(=O)(=O)N2CCN(C(C(=O)Nc3ccc(F)cc3)c3ccccc3)CC2)cc1 (stereo unspecified)	0	-5.1	0.5	6	1.9%	2
O=C(Nc1nnc(-c2cccs2)o1)c1cccc(C(F)(F)F)c1	4	-3.3	23	-1	2.8%	-7
